High-throughput results from PubChem.
HSV replic up: enhancers of HSV replication in host cells, fold increase, host cell viability; maximum fold increase; actives 0.005% (n = 220,000); AID 1956, 2009; HSV replication augmentation in cells;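 active = peak rise of 1.5-fold or more in the series; tested in PC3 cells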;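 also: first round at 10 µM; read as green reporter fluorescence; hits show the peak of a series up to 25 µM; 1 = signal of infected wells without compound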
PKD1 kinase inh: inhibitors of human PKD1 kinase, biochemical, fluorescence polarization; Serine/threonine-protein kinase D1 (Homo sapiens), Q15139; PKD1 kinase fluorescence polarization assay; inhibition, %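 (about 10 µM by stock and volumes)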; actives 0.056% (n = 200,000); AID 797, 2007;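 active = inhibition of 50% or more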;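 also: controls were vehicle for no effect and a reference inhibitor for full effect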
GALR2 agonist: GALR2 receptor agonists, primary screen, cell-based | Galanin receptor type 2 (Homo sapiens), O43603 | GALR2-expressing cells, agonist activation read-out | activation, %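 (tested at 5 µM)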 | actives 0.48% (n = 140,000);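 active = above mean plus 3 SD of all compounds, about 5% in these data, not always enough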;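 also: 0% = vehicle buffer wells and 100% = reference agonist at full effect; tested in CHO reporter cells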
Target sequence (O43603 whole entry, looked up): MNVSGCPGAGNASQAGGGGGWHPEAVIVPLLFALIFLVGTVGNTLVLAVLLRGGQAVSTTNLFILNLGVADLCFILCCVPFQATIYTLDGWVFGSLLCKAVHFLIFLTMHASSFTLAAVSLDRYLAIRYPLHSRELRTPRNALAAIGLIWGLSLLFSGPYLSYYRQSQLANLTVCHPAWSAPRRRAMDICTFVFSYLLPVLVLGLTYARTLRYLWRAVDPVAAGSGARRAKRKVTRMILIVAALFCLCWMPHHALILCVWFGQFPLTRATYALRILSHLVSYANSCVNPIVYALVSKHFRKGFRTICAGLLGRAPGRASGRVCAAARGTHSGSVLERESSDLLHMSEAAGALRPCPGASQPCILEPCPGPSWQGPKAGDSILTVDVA
INS promoter inh: inhibitors of insulin promoter-driven GFP, primary screen, imaging, TRM-6 cells (human fetal islet line), eGFP reporter, cell count; reporter expression induced with tamoxifen; inhibition, % at 2 µM; AID 1273, 2008; actives 0.9% (n = 130,000);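 active = inhibition above the mean plus 3 SD, with well images judged a real hit on visual review, cut at about 60% in these data, passing the limit was not always enough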
RGS16-Gao: modulators of RGS16 binding to Galphao, primary screen, biochemical, human proteins, multiplexed bead flow cytometry. binding response (% of control), % at 10 µM. bead-based flow cytometry RGS16-Galphao binding, fluorescence; actives lie on both sides. Regulator of G-protein signaling 16 (Homo sapiens) + Guanine nucleotide-binding protein …. actives 0.38% (n = 220,000). AID 1441, 2008;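 active = below 25% or above 175%, edge rows of some plates excepted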;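 also: Galphao activated by GDP with aluminum fluoride before binding; 100% = wells without compound and 0% = beads without RGS; some results beyond the cut were filed as inactive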
Target sequence (O15492 whole entry, looked up): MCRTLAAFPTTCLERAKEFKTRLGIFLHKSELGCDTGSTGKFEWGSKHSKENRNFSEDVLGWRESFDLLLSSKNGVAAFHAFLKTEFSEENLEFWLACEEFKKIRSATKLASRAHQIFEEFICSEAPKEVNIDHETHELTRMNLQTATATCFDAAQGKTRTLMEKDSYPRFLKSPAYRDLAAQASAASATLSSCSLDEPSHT
Target sequence (P09471 whole entry, looked up): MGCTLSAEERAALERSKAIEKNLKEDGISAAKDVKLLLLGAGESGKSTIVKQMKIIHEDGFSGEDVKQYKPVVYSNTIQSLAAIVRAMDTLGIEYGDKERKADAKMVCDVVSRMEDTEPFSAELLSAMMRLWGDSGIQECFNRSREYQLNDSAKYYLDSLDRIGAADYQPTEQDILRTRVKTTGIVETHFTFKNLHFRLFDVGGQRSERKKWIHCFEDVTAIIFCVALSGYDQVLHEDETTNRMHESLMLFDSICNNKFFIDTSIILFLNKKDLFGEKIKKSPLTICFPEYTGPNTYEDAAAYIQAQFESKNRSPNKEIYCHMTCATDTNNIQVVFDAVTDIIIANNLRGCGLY
INS promoter inh cell count: also measured in INS promoter inh; calls as there; normalized cell count, %; measured here: cell count, toxicity; reference of the scale not given here;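 cells exposed to compound for 48 h; stained nuclei by imaging scaled within each plate; lower means fewer cells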
HSV replic up primary fold: recorded beside HSV replic up, whose call it bears; fold increase; compound at 10 µM; measured here: primary screen fold increase 10 uM; tested in PC3 cells;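 GFP signal in the first replicate; 1 = infected wells without compound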
Numbers without * were called inactive. The order is random; about 1.3% have a hit in one of these screens.

Screening Cc1noc(C)c1C(=O)N1CCCC(C(=O)c2ccc(Cl)cc2)C1 (stereo not given) returned HSV replic up inactive, PKD1 kinase inh -1, INS promoter inh 22, RGS16-Gao 102, INS promoter inh cell count 54 and HSV replic up primary fold 1.
Screening CCc1cccc(NC(=S)N2CCC(c3ccccc3)C2)c1 (stereo not given) returned HSV replic up inactive, PKD1 kinase inh 12, RGS16-Gao 100 and HSV replic up primary fold 1.1.
OC(CNCCC(c1ccccc1)c1ccccc1)COc1ccccc1 (stereo not given) was read as HSV replic up inactive, PKD1 kinase inh 0, RGS16-Gao 104 and HSV replic up primary fold 0.88.
For COc1ccc(OC)c(/C=C/C(=O)OCC(=O)Nc2cccc(C(C)=O)c2)c1 the results were HSV replic up inactive, PKD1 kinase inh 2, GALR2 agonist -0.2, INS promoter inh 0, RGS16-Gao 107, INS promoter inh cell count 98 and HSV replic up primary fold 0.97.
COc1ccccc1N1CCN(C(=O)C2CCN(S(=O)(=O)c3ccccc3)CC2)CC1 was read as HSV replic up inactive, PKD1 kinase inh 2, GALR2 agonist -2.7, RGS16-Gao 103 and HSV replic up primary fold 0.82.
`C=CCN1C(=O)C(Cc2ccc(F)cc2)S/C1=N/N=C/c1ccco1` (stereo not given) gave HSV replic up inactive, PKD1 kinase inh -3, GALR2 agonist -1.4, INS promoter inh -26, RGS16-Gao 47, INS promoter inh cell count 87 and HSV replic up primary fold 0.76.
Cc1ccccc1-n1c(SCC(=O)NC(N)=O)nc2sc(-c3ccccc3)cc2c1=O was read as HSV replic up inactive, PKD1 kinase inh 10, GALR2 agonist -0.3, INS promoter inh 33, RGS16-Gao -3.3*, INS promoter inh cell count 116 and HSV replic up primary fold 0.67.
`Cc1ccc(NC(=O)C(c2ccccc2)N(C)C)cc1Cl` (stereo not given) gave HSV replic up inactive, PKD1 kinase inh 3, INS promoter inh 50, RGS16-Gao 96, INS promoter inh cell count 163 and HSV replic up primary fold 0.72.
O=C(COC(=O)c1cccs1)NCCN1C(=O)CSC1=O was read as HSV replic up inactive, PKD1 kinase inh 4, GALR2 agonist -2.2, RGS16-Gao 101 and HSV replic up primary fold 1.1.
Screening CC(=O)N1CCN(c2ccc(NC(=O)c3ccc(OCc4ccccc4)cc3)cc2)CC1 returned HSV replic up inactive, PKD1 kinase inh -2, RGS16-Gao 101 and HSV replic up primary fold 0.96.
For N#Cc1c2n(c3c(=O)n(Cc4ccc(Cl)cc4)cnc13)CCCCC2 the results were HSV replic up inactive, PKD1 kinase inh -1, GALR2 agonist -0.7, RGS16-Gao 96 and HSV replic up primary fold 0.91.
For NC(=O)CC(NC(=O)Cc1ccc(Cl)cc1)c1ccc(NCCc2ccccc2F)c([N+](=O)[O-])c1 (stereo not given) the results were HSV replic up inactive, RGS16-Gao 97 and HSV replic up primary fold 0.8.
For COC(=O)c1ccc(-c2ccc(C(c3c(C)[nH][nH]c3=O)c3c(C)[nH][nH]c3=O)o2)cc1 the results were HSV replic up inactive, PKD1 kinase inh -2, INS promoter inh 0, RGS16-Gao 90, INS promoter inh cell count 95 and HSV replic up primary fold 0.96.
COc1cc(C)c(NC(=S)Nc2ccc(C)c(Cl)c2)cc1OC was read as HSV replic up inactive, PKD1 kinase inh 7, GALR2 agonist -1.1, INS promoter inh 0, RGS16-Gao 105, INS promoter inh cell count 148 and HSV replic up primary fold 1.
`Cn1c(SCC(=O)N2CCCC2)nc2cccnc21` gave HSV replic up inactive, PKD1 kinase inh 5, INS promoter inh 0, RGS16-Gao 99, INS promoter inh cell count 56 and HSV replic up primary fold 0.96.
For CCCN1CCCc2cc(CN(CCCN3CCOCC3)C(=O)Nc3ccc(OCC)cc3)ccc21 the results were HSV replic up inactive, PKD1 kinase inh -5, GALR2 agonist -0.1, INS promoter inh 28, RGS16-Gao 107, INS promoter inh cell count 38 and HSV replic up primary fold 1.1.
Cc1[nH]c(=O)cc2ccccc12 was read as HSV replic up inactive, PKD1 kinase inh -11, GALR2 agonist -1.5, RGS16-Gao 104 and HSV replic up primary fold 0.87.
Screening CC1=C(C(=O)Nc2ccccc2C)C(c2cccs2)NC(=S)N1 (stereo not given) returned HSV replic up inactive, PKD1 kinase inh 11, GALR2 agonist -1.7, INS promoter inh -4, RGS16-Gao 102, INS promoter inh cell count 87 and HSV replic up primary fold 1.
For CCCCNCC#CCOc1cc(C)ccc1C(C)C the results were HSV replic up inactive, PKD1 kinase inh -10, RGS16-Gao 100 and HSV replic up primary fold 0.93.
For CCc1ccccc1NC1=NCC(=O)N1Cc1ccccc1 the results were HSV replic up inactive, PKD1 kinase inh -9, GALR2 agonist -2.5, RGS16-Gao 74 and HSV replic up primary fold 1.1.
Screening O=C(NCCOc1ccc(F)cc1)c1ccccc1SCc1ccccc1 returned HSV replic up inactive, PKD1 kinase inh -4, GALR2 agonist -1.1, INS promoter inh -18, RGS16-Gao 100, INS promoter inh cell count 96 and HSV replic up primary fold 1.1.
`CCOC(=O)C1CCCN(Cc2nc(Cc3ccccc3Cl)no2)C1` (stereo not given) gave HSV replic up inactive, PKD1 kinase inh -3, RGS16-Gao 98 and HSV replic up primary fold 0.96.
COC(=O)CCCC1=CC2=C(c3ccccc3)C(=O)C(C)(OC(=O)C3CCCC3)C(=O)C2=CN1CC1CC1 (stereo not given) was read as HSV replic up inactive, RGS16-Gao 98 and HSV replic up primary fold 1.
CCNCc1ccccc1OCc1ccccc1 was read as HSV replic up inactive, PKD1 kinase inh -7, INS promoter inh 0, RGS16-Gao 102, INS promoter inh cell count 102 and HSV replic up primary fold 0.91.
For CCCCN(C(=O)c1cccc2c(=O)c(C)c(-c3ccccc3)oc12)c1ccccc1 the results were HSV replic up inactive, PKD1 kinase inh -6, GALR2 agonist -0.9, INS promoter inh -45, RGS16-Gao 103, INS promoter inh cell count 98 and HSV replic up primary fold 0.94.
`Cc1ccc(N2C(=O)CC(N3CCc4ccccc43)C2=O)cc1Cl` (stereo not given) gave HSV replic up inactive, PKD1 kinase inh 1, RGS16-Gao 105 and HSV replic up primary fold 0.99.
Cc1nn2c(NCCCN(C)C)c3c(nc2c1-c1ccccc1)CCC3 was read as HSV replic up inactive, PKD1 kinase inh 0, GALR2 agonist 3.8, INS promoter inh 25, RGS16-Gao 143, INS promoter inh cell count 104 and HSV replic up primary fold 0.92.
Nc1nnc(CSCc2ccc(F)cc2)s1 was read as HSV replic up inactive, PKD1 kinase inh -3, GALR2 agonist 0.4, RGS16-Gao 102 and HSV replic up primary fold 1.1.
`Cc1cccc(C(=O)Nc2nnc(COc3ccccc3)s2)c1` gave HSV replic up inactive, PKD1 kinase inh -10, RGS16-Gao 107 and HSV replic up primary fold 1.
`CCOC(=O)C1=C(N)N2C(=O)C(C)SC2=C(C(=O)OCC)C1c1ccccc1` (stereo not given) gave HSV replic up inactive, PKD1 kinase inh -6, GALR2 agonist -4.8, RGS16-Gao 107 and HSV replic up primary fold 1.1.

Part of the list above in order of length of the SMILES, lowest first.
Cc1[nH]c(=O)cc2ccccc12 was read as HSV replic up inactive, PKD1 kinase inh -11, GALR2 agonist -1.5, RGS16-Gao 104 and HSV replic up primary fold 0.87.
COc1cc(C)c(NC(=S)Nc2ccc(C)c(Cl)c2)cc1OC was read as HSV replic up inactive, PKD1 kinase inh 7, GALR2 agonist -1.1, INS promoter inh 0, RGS16-Gao 105, INS promoter inh cell count 148 and HSV replic up primary fold 1.
For N#Cc1c2n(c3c(=O)n(Cc4ccc(Cl)cc4)cnc13)CCCCC2 the results were HSV replic up inactive, PKD1 kinase inh -1, GALR2 agonist -0.7, RGS16-Gao 96 and HSV replic up primary fold 0.91.

More structures.
Screening Cc1ccc2[nH]c(=O)c(CNC(C)(C)C)cc2c1 returned HSV replic up inactive, PKD1 kinase inh 1, GALR2 agonist -1.6, INS promoter inh 14, RGS16-Gao 106, INS promoter inh cell count 100 and HSV replic up primary fold 0.98.
For O=C(NC(C(=O)N1CCCC1C(=O)O)=C1CCCCC1)c1ccccc1 (stereo not given) the results were HSV replic up inactive, PKD1 kinase inh 1, GALR2 agonist -0.3, INS promoter inh 4, RGS16-Gao 101, INS promoter inh cell count 90 and HSV replic up primary fold 0.93.
`CC(=O)Nc1ccc(S(=O)(=O)N2CCN(Cc3nc4sc(C)c(C)c4c(=O)[nH]3)CC2)cc1` gave HSV replic up inactive, RGS16-Gao 100 and HSV replic up primary fold 0.86.
Screening Cc1ccc(S(=O)(=O)N(C)CCCC(=O)Nc2ccc(F)cc2)cc1 returned HSV replic up inactive, PKD1 kinase inh -5, INS promoter inh -118, RGS16-Gao 112, INS promoter inh cell count 86 and HSV replic up primary fold 1.1.
Screening Cc1ccc(NC(=O)C2CCCCC2C(=O)O)cc1C (stereo not given) returned HSV replic up inactive, RGS16-Gao 103 and HSV replic up primary fold 0.92.
For COc1ccccc1OCCn1c(=O)n(C)c2ccccc21 the results were HSV replic up inactive, PKD1 kinase inh -11, INS promoter inh 0, RGS16-Gao 98, INS promoter inh cell count 93 and HSV replic up primary fold 0.91.
`O=C(CC1NCCNC1=O)Nc1cccc([N+](=O)[O-])c1` (stereo not given) gave HSV replic up inactive, PKD1 kinase inh -2, RGS16-Gao 101 and HSV replic up primary fold 0.91.
`O=C(Nc1cccc(S(=O)(=O)N2CCOCC2)c1)C1CCCN(C(=O)c2ccc(Cl)cc2)C1` (stereo not given) gave HSV replic up inactive, RGS16-Gao 99 and HSV replic up primary fold 1.1.
`O=C(O)c1ccc2c(c1)C(=O)N(c1cccc(S(=O)(=O)Nc3cccc(C(F)(F)F)c3)c1)C2=O` gave HSV replic up inactive, PKD1 kinase inh -3, RGS16-Gao 102 and HSV replic up primary fold 1.1.
`O=C(c1ccc(Br)o1)N1CCN(Cc2ccc3c(c2)OCO3)CC1` gave HSV replic up inactive, PKD1 kinase inh 1, GALR2 agonist -3.7, INS promoter inh 47, RGS16-Gao 96, INS promoter inh cell count 89 and HSV replic up primary fold 0.96.
For CC(C)CN(Cc1c(O)ccc2c3c(c(=O)oc12)CCC3)CC(C)C the results were HSV replic up inactive, PKD1 kinase inh 4, GALR2 agonist -1.9, INS promoter inh -50, RGS16-Gao 103, INS promoter inh cell count 75 and HSV replic up primary fold 1.2.
Screening Cc1cc(C)c2nc(Cl)c(CN(Cc3ccco3)C(=O)Nc3ccccc3C)cc2c1 returned HSV replic up inactive, PKD1 kinase inh 1, GALR2 agonist 0.8, INS promoter inh 0, RGS16-Gao 100, INS promoter inh cell count 91 and HSV replic up primary fold 0.67.
Cn1c(=O)c2c(nc(Sc3ncnn3CC(=O)NC(C)(C)C)n2C)n(C)c1=O was read as HSV replic up inactive, PKD1 kinase inh -5, RGS16-Gao 108 and HSV replic up primary fold 1.
Screening Cn1cnnc1SCc1cccc(Br)c1 returned HSV replic up inactive, PKD1 kinase inh -9, GALR2 agonist -0.1, INS promoter inh 0, RGS16-Gao 102, INS promoter inh cell count 31 and HSV replic up primary fold 0.96.
`Cc1ccc(S(=O)(=O)N2CCN(C(=O)C3COc4ccccc4O3)CC2)cc1C` (stereo not given) gave HSV replic up inactive, PKD1 kinase inh -9, GALR2 agonist -1.5, RGS16-Gao 101 and HSV replic up primary fold 0.93.
Screening CCOC(=O)c1oc2ccccc2c1NC(=O)C(C)(C)C returned HSV replic up inactive, PKD1 kinase inh 2, RGS16-Gao 98 and HSV replic up primary fold 1.
COc1ccccc1/C=C/C(=O)OCC(=O)NNC(=O)c1ccccc1 was read as HSV replic up inactive, PKD1 kinase inh 2, GALR2 agonist -1.6, INS promoter inh 20, RGS16-Gao 111, INS promoter inh cell count 141 and HSV replic up primary fold 1.
`CCC(C)C(=O)Nc1nc(C)c(-c2csc(Nc3cc(Cl)ccc3OC)n2)s1` (stereo not given) gave HSV replic up inactive, PKD1 kinase inh 1, GALR2 agonist -0.4, INS promoter inh -24, RGS16-Gao 102, INS promoter inh cell count 69 and HSV replic up primary fold 0.95.
Screening CCOC(=O)c1c(NC(=O)CSc2nc3ccccc3o2)sc(C)c1C returned HSV replic up inactive, PKD1 kinase inh -12, GALR2 agonist -0.4, RGS16-Gao 102 and HSV replic up primary fold 0.72.
CC(=O)Nc1ccc(S(=O)(=O)Nc2cccc(-c3nc4ccccc4o3)c2)cc1 was read as HSV replic up inactive, PKD1 kinase inh 0, GALR2 agonist -0.5, INS promoter inh 54, RGS16-Gao 104, INS promoter inh cell count 128 and HSV replic up primary fold 0.78.
Screening CS(=O)(=O)N1CCN(c2ccccc2NC(=O)CSc2ccc(Cl)cc2)CC1 returned HSV replic up inactive, PKD1 kinase inh 2, GALR2 agonist -2.8, RGS16-Gao 118 and HSV replic up primary fold 0.89.
